# Screens (PubChem BioAssay)
# N370S GC: qHTS Assay for Inhibitors and Activators of N370S glucocerebrosidase as a Potential Chaperone Treatment of Gaucher Disease; Lysosomal acid glucosylceramidase (Homo sapiens), P04062; N370S GC spleen homogenate, 4MU-glucoside fluorescence; Potency, µM (highest dose often 59.4 µM), for the others: at the top dose activity change, negative = inhibition, actives largely listed as inhibitors; actives 0.092% (n = 330,000);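 note: 0% = full enzyme activity and -100% = no enzyme basal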
# FEN1 inh: qHTS Assay for the Inhibitors of Human Flap endonuclease 1 (FEN1); P39748; actives 0.35% (n = 390,000); Potency, µM (series often up to 114 µM), for inactives: top-dose activity change, negative = inhibition, actives largely listed as inhibitors; Recombinant FEN1 flap cleavage, fluorescence, 15 min; note: nearly all actives have a fitted effect of over 65% in size
# Target sequence (P39748 whole entry, looked up): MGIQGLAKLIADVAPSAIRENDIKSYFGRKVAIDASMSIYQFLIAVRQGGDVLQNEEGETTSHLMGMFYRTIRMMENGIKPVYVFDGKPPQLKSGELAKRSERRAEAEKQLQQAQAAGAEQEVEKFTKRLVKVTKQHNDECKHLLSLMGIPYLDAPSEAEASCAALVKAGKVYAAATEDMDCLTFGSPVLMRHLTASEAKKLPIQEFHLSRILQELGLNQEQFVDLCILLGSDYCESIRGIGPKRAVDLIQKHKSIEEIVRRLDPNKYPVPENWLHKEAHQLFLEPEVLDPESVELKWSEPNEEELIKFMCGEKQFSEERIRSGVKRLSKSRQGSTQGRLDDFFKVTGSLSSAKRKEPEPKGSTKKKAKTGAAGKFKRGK
#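 Quantitative HTS format: each compound was titrated, incubated with 10 nM nuclease for 15 min at room temperature, then challenged with flap substrate at 50 nM final. Signal change over 15 min gave concentration–effect curves.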
# * marks the source's active call; other numbers are inactive results; ? = inconclusive; . = not tested or not shown; & = joins results of further samples; [ ] = another dose, or the depositor's remark. Calls come from the whole dose curve; as a rule, active = well fitted curve in the direction sought with a large enough effect; inconclusive = small, poorly fitted or top-dose-only effect, or another doubt; inactive = no such curve, though single readings can be large; an effect the other way counts as inactive or inconclusive. Unless noted, % is set by controls: 0 for no effect and ±100 for the full control effect; potency is the fitted concentration of half-maximal effect. The list is partial; most or all hits stand in other tables.
# The line under a structure holds: FEN1 inh	N370S GC
CC(=O)c1ccc(NC(=O)c2cc3c([nH]c2=O)CC(c2ccccc2)CC3=O)cc1 (stereo not given)
  16%	.
COc1ccc(C(=O)Nc2nc3c(s2)CCCC3)cc1S(=O)(=O)N1CCCc2ccccc21
  7%	7%
Cc1ccccc1OCC(=O)OCC(=O)NCc1ccc2c(c1)OCO2
  8%	.
O=C(Nc1c(C(=O)N2CCOCC2)cnn1-c1ccccc1)c1ccc(F)cc1
  0%	-27%
CN1CCN(Cc2c(C(=O)N/N=C/c3cccc(Br)c3)nnn2-c2nonc2N)CC1
  -11%	-3%
CCCN1CCN(CCCNC(=O)CN2C(=O)COc3ccccc32)CC1
  1%	-2%
COc1ccc(CN2CCNC(=O)C2CC(=O)NCCC2=CCCCC2)c(F)c1 (stereo not given)
  -8%	-7%
CC(C)=CC(=O)OCC(=O)Nc1ccc(SC(F)F)cc1
  -7%	2%
Cc1ccc(-c2nn(-c3ccccc3)cc2CN(C)C(=O)CCC(=O)O)cc1C
  -3%	9%
COc1cccc(C(=O)Nc2nc3ccc(S(C)(=O)=O)cc3s2)c1
  -4%	-13%
CCC1(C)Cc2nc(Cl)c(C#N)cc2CO1 (stereo not given)
  19%	1%
CC(=O)/C=C(\C)NCCNc1c(F)c(F)c(CO)c(F)c1F
  -8%	-5%
Cc1cc(OCC(=O)NCCCN2CCCC2=O)c2c(C)c(C)c(=O)oc2c1
  13%	2%
COc1ccc(-c2noc(N3CCC(C(=O)N4CCN(c5cccc(C)c5C)CC4)CC3)n2)cc1
  13%	.
CCCCCCSc1cc(-c2nc3cnccn3c2NCCCC)ccc1OC
  -19%	.

# 5 structures out of the list, arranged by SMILES length, low to high.
# The line under a structure holds: FEN1 inh	N370S GC
CCC1(C)Cc2nc(Cl)c(C#N)cc2CO1 (stereo not given)
  19%	1%
CC(C)=CC(=O)OCC(=O)Nc1ccc(SC(F)F)cc1
  -7%	2%
Cc1ccccc1OCC(=O)OCC(=O)NCc1ccc2c(c1)OCO2
  8%	.
Cc1cc(OCC(=O)NCCCN2CCCC2=O)c2c(C)c(C)c(=O)oc2c1
  13%	2%
COc1ccc(-c2noc(N3CCC(C(=O)N4CCN(c5cccc(C)c5C)CC4)CC3)n2)cc1
  13%	.

# (list continues)
# The line under a structure holds: FEN1 inh	N370S GC
CC(C)(C)c1ccc(C(=O)c2c[nH]c(C(=O)NCCc3ccccn3)c2)cc1
  1%	2%
Cc1ccc(NC(=O)[C@@H](c2ccccc2)N2Cc3ccccc3C2=O)cc1F
  -20%	.
COc1cccc(N2CCN(CC(=O)NC(=O)NC3CCCCC3)CC2)c1
  -3%	-15%
CCSc1ccccc1C(=O)Nc1nncs1
  12%	15%
COc1cc(NC(=O)c2cc(-c3cccnc3)nc3ccc(C)cc23)c(OC)cc1Cl
  .	-14%
Cc1ccc(CNC(=O)Cc2ccc(NC(=O)N3CCSc4ncccc43)cc2)cc1
  -6%	.
Cc1ccc(CCNC(=O)c2cn(C)c3ccc(S(=O)(=O)N4CCCCC4)cc3c2=O)cc1
  12%	.
Cc1[nH]c2ccccc2c1SCC(=O)N1CCCCC1
  -15%	-1%
CCC(CC)NC(=O)c1cc(OC)c(OC)cc1[N+](=O)[O-]
  3%	-25%
Cc1cccc(N2C(=O)C(Oc3ccc(Cl)cc3Cl)C2C=O)c1C (stereo not given)
  -16%	0%
COc1cccc(-c2cc(=O)c3cc(O)ccc3o2)c1
  .	-4%
Cc1nn(Cc2ccccc2)c(=O)n1N(C)c1ncc(C(F)(F)F)cc1Cl
  2%	2%
Cc1cccc(NS(=O)(=O)c2ccc(C(=O)N3CCN(c4ccccc4O)CC3)cc2)c1C
  -17%	-5%
O=C1CCCC2=C1C1c3ccccc3C(=O)N1c1ccc(C(=O)c3ccccc3)cc1N2 (stereo not given)
  -8%	9%
O=C(NC(=S)Nc1ccc(S(=O)(=O)NC2CCCCC2)cc1)c1cccs1
  -16%	5%

# (continued)
# The line under a structure holds: FEN1 inh	N370S GC
CCOc1ccc(NC(=O)C2CCCN2C(=O)OCc2ccccc2)cc1 (stereo not given)
  0%	9%
CCN(c1ccccc1)S(=O)(=O)c1nnc(NC(=O)c2ccccc2OC)s1
  -7%&17%	-10%
CCOC(=O)c1[nH]c(C)c(C(=O)NC2CCCCC2)c1C
  18%	-8%
O=C(O)c1cc2c([nH]c1=O)CCCC2
  9%	1%
CN1CCN(C(=O)/C(=C/c2ccco2)NC(=O)c2ccccc2)CC1
  -7%	-1%
Cc1cccn2c(=O)c3cc(C(=O)NCCc4ccccc4)c(=N)n(CC4CCCO4)c3nc12 (stereo not given)
  3%	21%
CC(Oc1ccccc1F)c1nnc(SCC(=O)c2c(N)n(C3CC3)c(=O)[nH]c2=O)o1 (stereo not given)
  -14%	.
Cc1cccc(C(=O)Nc2ccc(N3CCN(c4ccc(C(F)(F)F)cn4)CC3)nc2)c1
  6%	-13%
CC(C)c1ccccc1OCC(=O)N(C)CC(=O)Nc1ccc(F)cc1
  -12%	-8%
CCc1cc2c(=O)c(-c3nc4ccccc4n3C)c(C)oc2c(CN(CC)CC)c1O
  4%	-5%
CCC(Cc1ccccc1)NC(=O)CN(C)S(=O)(=O)c1ccc2c(c1)c(=O)n(C)c(=O)n2C (stereo not given)
  18%	17%
c1ccc(N2CCN(Cc3cn4cccnc4n3)CC2)cc1
  -8%	5%
CCCC(=O)Nc1cccc(-c2nc3cc(C)c(C)cc3o2)c1
  -1%	5%[2.35 µM]
CC(C)c1ccc(S(=O)(=O)N(C)C2(C)CCS(=O)(=O)C2)cc1 (stereo not given)
  5%	3%
O=c1c2ccccc2nc2n1C(CSc1ccccc1)CS2 (stereo not given)
  0%	7%

# More compounds follow.
# The line under a structure holds: FEN1 inh	N370S GC
CN(CC(=O)Nc1c(Cl)cccc1Cl)C(=O)c1ccccc1SCC(=O)N1CCCC1
  -14%	-4%
Cc1nn(CC(=O)NCCCc2ccccc2)c(C)c1[N+](=O)[O-]
  -5%	-9%
CC[C@H](NC(=O)c1c(C)c(-c2ccccc2)nc2ccccc12)c1ccccc1
  -1%	3%&13%&-3%
O=C(Nn1c(=S)[nH]c2ccccc2c1=O)c1ccncc1
  -4%	-2%
Clc1ccc(CSc2ncn(-c3ccccc3)n2)cc1
  ?	5%
O=c1[nH]c(=O)c2nc(Br)n(C3OC(CO)C(O)C3O)c2[nH]1 (stereo not given)
  .	2%
O=C(O)C1C2CC2CN1C(=O)c1ccc(Cl)cc1 (stereo not given)
  7%	6%
Cc1ccc(S(=O)(=O)c2cn(CC(=O)Nc3ccc(Cl)cc3)c3ccc(F)cc3c2=O)cc1C
  19%	.
CCN(CC)CCC(c1ccc(N(C)C)cc1)c1c(O)cc(OC)cc1OC (stereo not given)
  -23%&8%	2%&5%
COc1cc2[nH]c(=O)n(CCC(=O)NCCCN3CCN(c4ccccc4F)CC3)c(=O)c2cc1OC
  15%	-1%
O=C(NC(=S)NC1CCCC1)c1ccccc1Br
  -6%	-9%
N#Cc1c(-c2ccccc2)nc(SCC(=O)N(c2ccccc2)c2ccccc2)[nH]c1=O
  -5%	12%
S=c1nc(C2CCCCC2)[nH][nH]1
  0%	4%
O=C(CNC(=S)N(Cc1ccccc1Cl)C1CCCC1)NCCCN1CCOCC1
  3%	-24%
O=C(CCN1C(=O)C2C3C=CC(C4CC34)C2C1=O)Oc1ccccc1 (stereo not given)
  17%	4%

# The list goes on.
# The line under a structure holds: FEN1 inh	N370S GC
COC(=O)c1c(NC(=O)Cn2cnc([N+](=O)[O-])n2)sc2c1CCC(C)C2 (stereo not given)
  -15%	24%
O=C(O)C1CCCCC1C(=O)NCCc1ccc(F)cc1 (stereo not given)
  -1%	-1%
CCCOc1ccc(-c2cccc(NS(=O)(=O)c3cc(OC)ccc3OC)c2)nn1
  -19%	.
O=C(CCN1CCN(c2ccc(Cl)cc2)CC1)Nc1ccccc1F
  -11%	7%
CC1CCCN(Cc2nc3c(c(=O)n(C)c(=O)n3C)n2CCc2ccccc2)C1 (stereo not given)
  -13%	-14%
O=C(NCCc1c[nH]c2ccccc12)c1cc2ccccc2oc1=O
  -18%	?
CC(O)c1nc2ccccc2n1CCOc1ccccc1 (stereo not given)
  3%	?
COc1ccc(NC(=O)c2ccco2)cc1NC(=O)COc1ccccc1
  -17%&12%	-8%
CC1CCc2cc(F)ccc2N1C(=O)CSc1nnc2c3cc(F)ccc3n(C)c2n1 (stereo not given)
  1%	-1%
C/C(=N/NC(=O)Nc1ccccc1)c1ccc(C)cc1
  3%	-13%
CCCOc1ccc(NC(=O)CC2C(=O)N(c3cccc(C)c3)C(=O)N2CCc2ccncc2)cc1 (stereo not given)
  7%	.
CC(=O)/C(N=Nc1ccc2c(c1)OCCO2)=C(\C)O
  -1%	0%
CC(=O)NC1(c2ccc(F)cc2)CCN(C(=O)Nc2ccc(F)cc2F)CC1
  8%	6%
Cc1ccccc1NC(=O)Cc1nnc(SCC(=O)c2ccc(Br)cc2)n1C
  2%	9%
Cc1cc(C)c(-c2csc(NC(=O)C3=NN(c4ccccc4)C(=O)CC3)n2)c(C)c1
  -6%	-1%

# New compounds follow
# The line under a structure holds: FEN1 inh	N370S GC
COc1ccc(C(=O)Nc2ccnn2C2CCN(C(=O)c3cc(C)on3)CC2)cc1
  -9%	-4%
O=C(COC(=O)c1ccccn1)Nc1cccc(Cl)c1
  7%	5%
Cc1cccc(C)c1NC(=S)NN1CCN(C)CC1
  -2%	-16%
O=C(O/N=C\c1ccc(N2CCCCC2)c([N+](=O)[O-])c1)c1cccc(C(F)(F)F)c1
  -5%	-4%
COc1ccc(-c2cc(C(F)(F)F)nc(SCC(=O)N3CCCCC3)n2)cc1
  1%	.
CCC(C)Sc1nnc(CSc2nc3nc(C)cc(C)n3n2)o1 (stereo not given)
  3%	-1%
O=C(CN(Cc1ccccc1)S(=O)(=O)c1ccc(Br)cc1)N/N=C/c1ccccc1C(=O)O
  -19%	13%
CC1(C)CC(NS(=O)(=O)c2ccc(S(=O)(=O)N3CCOCC3)cc2)CCO1 (stereo not given)
  2%	-13%
CCN(CC)S(=O)(=O)c1cc(C(=O)N=c2sccn2C)ccc1OC
  -2%	-2%
COc1ccc(CC(=O)NCC(=O)N/N=C(/C)c2ccco2)cc1
  8%	1%
Cc1cc(C)c(NC(=O)C(C)c2cccc(C(=O)c3ccccc3)c2)c(C)c1 (stereo not given)
  -14%	-21%
CCN(CC(=O)NCc1cccs1)C(=O)c1ccccc1F
  -3%	1%
CN(Cc1ccccc1)S(=O)(=O)c1ccc(OCC(=O)N2CCOCC2)cc1
  -11%	1%
Cc1cccnc1NC(=S)Nc1ncccc1C
  8%	-18%
CC(=O)Nc1cccc(NC(=O)CSc2nccn2Cc2ccccc2)c1
  1%&1%	-10%

# Additional entries
# The line under a structure holds: FEN1 inh	N370S GC
COc1ccc(NC(=O)CSc2nnc(-c3cccs3)n2N)cc1S(N)(=O)=O
  0%	.
CCc1c(C)nc2ncnn2c1NCCc1ccccc1
  0%	3%
Cn1nnnc1SCC(=O)N1c2ccccc2CCc2ccccc21
  0%	2%
COc1ccc(N2CCN(CCCNC(=O)Cn3c(=O)c4cccn4c4ccccc43)CC2)cc1
  -2%	2%
COC(=O)C1=C(C)N(CCc2ccc(OC)c(OC)c2)C(=O)/C1=C\c1ccc(O)cc1
  2%	-6%
CN(Cc1ccccc1)S(=O)(=O)c1cccc2cccnc12
  8%	-6%
CCN1C(=O)c2cccc3c(S(=O)(=O)NCc4ccco4)ccc1c23
  4%	17%
N#Cc1ccc(OCC(=O)OCC(=O)c2ccc[nH]2)cc1
  -4%	-2%
O=C(COC(=O)Cc1ccc(F)cc1)Nc1cc(S(=O)(=O)N2CCOCC2)ccc1N1CCCC1
  -16%	-1%
CC1(C)CC(=O)C=C(Nc2ccc(O)c(C(=O)O)c2)C1
  2%	-8%
Cc1cc(C)n(CCNC(=O)C2CCC(=O)N(CC3CCCCC3)C2)n1 (stereo not given)
  -6%	0%
Cc1ccc(Cl)cc1-n1ncc2c(NCCCn3ccnc3)ncnc21
  -2%	.
CC(=O)c1ccc(C2C=CC(O)C(CO)O2)cc1 (stereo not given)
  .	5%[12.8 µM]
O=S(=O)(Nc1ccccc1N1CCOCC1)c1cccs1
  1%	.
CCN(CC(=O)NC(=O)NC1CCCCC1)Cc1nc2ccccc2c(=O)[nH]1
  -3%	?

# Continuation.
# The line under a structure holds: FEN1 inh	N370S GC
Cc1cc(C(=O)NCc2ccccc2)c2c(C)nn(-c3cccc(F)c3)c2n1
  -9%	.
Cc1nnc(-c2ccccc2)nc1N1CCOCC1
  5%	6%
COc1ccc(Nc2nc(N)nc(CN(C)C3CCCCC3)n2)cc1
  -12%	-1%
CN(C)c1cc[n+](CC(=O)c2cccs2)cc1
  9%	-12%
Cc1c(CN2CCCCC2)c(O)n(CCCO)c(=O)c1C#N
  -7%	0%
O=C(CCCC(=O)N/N=C\c1ccccn1)N/N=C\c1ccccn1
  -2%	4%
O=C(NC1CCCCC1)c1cc2c(Cl)nc3ccccc3c2s1
  -20%	.
COc1cc2c(Nc3ccc(NC(=O)c4ccccc4)cc3)ncnc2cc1OCCCN1CCOCC1
  ?	-11%
CCn1cnc2c1c(=O)n(Cc1cccc(Br)c1)c(=O)n2Cc1ccccc1
  2%	0%
CC(C)NC(=O)CSc1ccccc1C(=O)NCc1ccc2c(c1)OCO2
  -6%	1%
